Bead autofluor: compound fluorescence in toxin protease inhibitor counterscreen. compound autofluorescence counterscreen, microsphere flow cytometry; hits give high values. fluorescence intensity (concentration not given with the values). actives 3.1% (n = 360,000). AID 624483;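 active = at least 3 SD above the mean of all compounds, about 16000 in these data; inconclusive = too few beads counted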;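 note: 100 nL of 1 mM stock went into each well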
PrP UTR inh: suppresses PrP 5' UTR mRNA reporter expression; actives 0.35% (n = 340,000); cell-based PrP 5' UTR mRNA reporter, plate reader; inhibition, % (no concentration beside the values);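 active = every replicate at 50% or more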;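 note: 0 = median of the neutral control wells; tested in H4 reporter cells; numbers are from one replicate; inactives centre near -14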
ugtP null kill: compounds lethal to S. aureus RN4220 ugtP deletion mutant | OD600 growth, 16 h; some inactives read as strong as hits | growth inhibition, % (test concentration not listed) | actives 0.54% (n = 330,000);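 active = z-score under -3 and OD600 up to 0.15 on both plates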;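 note: plate controls were untreated wells for no effect and antibiotic for full effect; wells of about 80 µL received 100 nL stock; the first replicate is given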
BJeLR viability: BJeLR cell viability loss | AID 1554 | inhibition, % (no concentration beside the values) | actives 0.17% (n = 300,000) | BJeLR (HRASV12) viability, CellTiter-Glo ATP luminescence, 48 h; reference of the scale not given here;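 active = replicate mean above 50%; inconclusive = above 50% but judged a plate artefact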;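 note: 50 nL library stock added to about 25 µL; numbers are from one replicate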
Mtb hypoxia inh: Mtb hypoxia fluorescent reporter inhibition; M. tuberculosis hypoxia-regulated fluorescent reporter, fluorescence; AID 1159583; actives 0.1% (n = 300,000); fluorescence inhibition, % (concentration not given with the values);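 active = 35 to 45% if threefold the growth effect, above 45% if 1.5-fold the growth effect; inactive = the rest, general growth blockers included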;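 note: wells of about 50 µL received 100 nL stock; 0% = vehicle wells and 100% = reference inhibitor wells; whole bacteria with a GFP reporter of the hypoxia response; strong numbers were not always called active; many hits fall short of the cut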
Sa RN4220 lethal: kills Staphylococcus aureus RN4220. S. aureus RN4220 growth, OD600, 16 h. inhibition, % (concentration not given with the values). actives 0.33% (n = 330,000). AID 1259311;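 active = z-score of -3 or lower and OD600 up to 0.18 on both plates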;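 note: plate controls were untreated cells for no effect and reference antibiotic for full effect; stock transfer was 100 nL into about 80 µL; one replicate is shown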
Mtb hypoxia inh growth: further read-out of Mtb hypoxia inh, marked with its call; growth inhibition, %; measured here: M. tuberculosis growth (absorbance);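 0% = vehicle and 100% = reference antibiotic; read after six days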
The depositor's hits bear a star.

The opening 2 entries, to show the layout:
`CC(C)NC(=O)Cn1c(=O)n(CC(=O)N2CCCCC2)c(=O)c2sccc21` gave Bead autofluor 5903, PrP UTR inh -6, ugtP null kill 3, BJeLR viability -10, Mtb hypoxia inh 8, Sa RN4220 lethal 7.4 and Mtb hypoxia inh growth -2.
Screening CCOC(=O)C1CCN(S(=O)(=O)c2ccc3c(c2)CC(=O)N3C)CC1 returned Bead autofluor 2787, PrP UTR inh -15, ugtP null kill 8, BJeLR viability 11, Mtb hypoxia inh 7, Sa RN4220 lethal 7.5 and Mtb hypoxia inh growth -9.

Main list, previewed entries included:
`CC(C)NC(=O)Cn1c(=O)n(CC(=O)N2CCCCC2)c(=O)c2sccc21` gave Bead autofluor 5903, PrP UTR inh -6, ugtP null kill 3, BJeLR viability -10, Mtb hypoxia inh 8, Sa RN4220 lethal 7.4 and Mtb hypoxia inh growth -2.
Screening CCOC(=O)C1CCN(S(=O)(=O)c2ccc3c(c2)CC(=O)N3C)CC1 returned Bead autofluor 2787, PrP UTR inh -15, ugtP null kill 8, BJeLR viability 11, Mtb hypoxia inh 7, Sa RN4220 lethal 7.5 and Mtb hypoxia inh growth -9.
N#C/C(=C\c1ccc(Br)s1)C(=O)N1CCN(c2ccccc2)CC1 was read as Bead autofluor 9666, PrP UTR inh -19, ugtP null kill -15, BJeLR viability 4, Mtb hypoxia inh -5, Sa RN4220 lethal 2.2 and Mtb hypoxia inh growth 7.
For COc1ccc(-c2nnc(SCC(=O)N3CCCC(C)C3)o2)c(OC)c1 (stereo not drawn) the results were Bead autofluor 7394, PrP UTR inh -2, ugtP null kill 15, BJeLR viability -8, Mtb hypoxia inh 12, Sa RN4220 lethal 7.0 and Mtb hypoxia inh growth 9.
Screening O=C(c1ccccc1)c1cc2c(cc1[N+](=O)[O-])OCCO2 returned Bead autofluor 3938, PrP UTR inh 5, ugtP null kill 4, BJeLR viability 1, Mtb hypoxia inh 12, Sa RN4220 lethal 7.9 and Mtb hypoxia inh growth 12.
For COc1cccc(COc2ccc3ccc(=O)oc3c2)c1 the results were Bead autofluor 4542, PrP UTR inh -45, ugtP null kill 10, BJeLR viability -1, Mtb hypoxia inh 4, Sa RN4220 lethal 2.6 and Mtb hypoxia inh growth 0.
Screening Cc1ccc(-n2nc3c(c2NC(=O)c2cccs2)CS(=O)(=O)C3)c(C)c1 returned Bead autofluor 5951, PrP UTR inh -7, ugtP null kill 0, BJeLR viability 9, Mtb hypoxia inh -1, Sa RN4220 lethal 2.8 and Mtb hypoxia inh growth 3.
For COc1ccc(Nc2nc(C)cc(C)c2C#N)cc1 the results were Bead autofluor 3529, PrP UTR inh -7, ugtP null kill 2, BJeLR viability 8 and Sa RN4220 lethal 2.6.
Screening O=C(NCC1CCCO1)c1cccnc1NCc1ccc(F)cc1 (stereo not drawn) returned Bead autofluor 3255, PrP UTR inh -11, ugtP null kill 6, BJeLR viability 3, Mtb hypoxia inh 12, Sa RN4220 lethal 5.3 and Mtb hypoxia inh growth 2.
Screening COC(=O)c1c(C)cc(O)cc1O returned Bead autofluor 5579, PrP UTR inh -33, ugtP null kill -8, BJeLR viability -9 and Sa RN4220 lethal 2.3.
Screening CN(C)c1nnnn1-c1ccc(Cl)cc1Cl returned Bead autofluor 2690, PrP UTR inh -19, ugtP null kill -2, BJeLR viability 8, Mtb hypoxia inh 9, Sa RN4220 lethal 2.2 and Mtb hypoxia inh growth 3.
For O=C(NC(CC(=O)N1CCCC(C(F)(F)F)C1)c1ccccc1)c1ccccc1Cl (stereo not drawn) the results were Bead autofluor 5746, PrP UTR inh -38, ugtP null kill 1, BJeLR viability 2, Mtb hypoxia inh 4, Sa RN4220 lethal 1.7 and Mtb hypoxia inh growth 11.
`O=c1onc(-c2ccccc2)c2ccccc12` gave Bead autofluor 3184, PrP UTR inh -9, ugtP null kill 5, BJeLR viability -1, Mtb hypoxia inh 10, Sa RN4220 lethal 7.9 and Mtb hypoxia inh growth 11.
For CCCN(C(=O)c1ccc2c(SCC(=O)O)c3c(nc2c1)CCC3)c1cccc(C)c1 the results were Bead autofluor 4165, PrP UTR inh -8, ugtP null kill 0, BJeLR viability -4, Mtb hypoxia inh -3, Sa RN4220 lethal 3.1 and Mtb hypoxia inh growth 0.
`O=c1[nH]nc(-c2ccc(OCc3ccc(Cl)cc3Cl)cc2)o1` gave Bead autofluor 3309, PrP UTR inh -11, ugtP null kill -5, BJeLR viability -9, Mtb hypoxia inh 6, Sa RN4220 lethal -0.7 and Mtb hypoxia inh growth 4.
For Cc1ccc(CSCC(=O)Nc2ccc(F)cc2)cc1 the results were Bead autofluor 2535, PrP UTR inh -24, ugtP null kill -1, BJeLR viability -2, Mtb hypoxia inh -2, Sa RN4220 lethal 4.5 and Mtb hypoxia inh growth 3.
Screening CCn1c(SCc2ccccc2Cl)nc2nc3c(cc2c1=O)CCCC3 returned Bead autofluor 2233, PrP UTR inh -34, ugtP null kill 15, BJeLR viability -1, Mtb hypoxia inh 4, Sa RN4220 lethal 3.0 and Mtb hypoxia inh growth -1.
O=C1NC(=O)C(=Cc2ccco2)C(=O)N1 was read as Bead autofluor 4085, PrP UTR inh -2, ugtP null kill -1, Mtb hypoxia inh -1, Sa RN4220 lethal 1.5 and Mtb hypoxia inh growth 13.
Screening CCCCS(=O)c1c(O)c2ccccc2[nH]c1=O (stereo not drawn) returned Bead autofluor 1971, PrP UTR inh -10, ugtP null kill 1, BJeLR viability 1, Mtb hypoxia inh -5, Sa RN4220 lethal 1.3 and Mtb hypoxia inh growth 3.
Cn1c(C(=O)N2CCCC(C(=O)NCCc3ccccc3)C2)cc2sccc21 (stereo not drawn) was read as Bead autofluor 13279, PrP UTR inh -32, ugtP null kill 0, BJeLR viability -3, Mtb hypoxia inh 3, Sa RN4220 lethal 5.4 and Mtb hypoxia inh growth 4.
Screening COc1ccccc1-c1nc(-c2ccc(Br)o2)no1 returned Bead autofluor 5725, PrP UTR inh -41, ugtP null kill 8, BJeLR viability -3, Mtb hypoxia inh 7, Sa RN4220 lethal -0.6 and Mtb hypoxia inh growth 7.
Screening CCN(CC)Cc1ccccc1CNC(=O)c1cccc(S(=O)(=O)Nc2ccc3c(c2)OCO3)c1 returned Bead autofluor 7674, PrP UTR inh -15, ugtP null kill 4, Mtb hypoxia inh 1, Sa RN4220 lethal 2.2 and Mtb hypoxia inh growth -1.
`Cc1ccc(S(=O)(=O)NCc2ccccc2)cc1C(=O)NC1CCC(C)CC1` (stereo not drawn) gave Bead autofluor 5115, PrP UTR inh -14, ugtP null kill 10, BJeLR viability 9, Mtb hypoxia inh 4, Sa RN4220 lethal 3.1 and Mtb hypoxia inh growth 8.
For Cc1nnc(SC(C)C)n(N)c1=O the results were Bead autofluor 5134, PrP UTR inh -43, ugtP null kill 5, BJeLR viability -6, Mtb hypoxia inh -7, Sa RN4220 lethal 5.3 and Mtb hypoxia inh growth 5.
O=C(/C=C/c1ccco1)Nc1cccnc1 was read as Bead autofluor 2533, PrP UTR inh -49, ugtP null kill 1, BJeLR viability 11, Mtb hypoxia inh 14, Sa RN4220 lethal 2.8 and Mtb hypoxia inh growth 8.
CCCC(=O)OCCNC(=O)c1cc2ccccc2oc1=O was read as Bead autofluor 3771, PrP UTR inh -12, ugtP null kill 7, BJeLR viability -6 and Sa RN4220 lethal -1.2.
For CC(Sc1nc2sccc2c(=O)n1-c1ccccc1)C(N)=O (stereo not drawn) the results were Bead autofluor 3584, PrP UTR inh -13, ugtP null kill 1, BJeLR viability 13, Mtb hypoxia inh 7, Sa RN4220 lethal 1.1 and Mtb hypoxia inh growth 10.
For COc1ccc(CCC(=O)Nc2ccc(Cl)c(S(=O)(=O)N3CCOCC3)c2)cc1OC the results were Bead autofluor 4205, PrP UTR inh -6, ugtP null kill 4, Mtb hypoxia inh -8, Sa RN4220 lethal 3.8 and Mtb hypoxia inh growth -10.
Screening COc1cccc(C2(CSc3nnc(-c4cc(OC)c(OC)c(OC)c4)o3)OCCO2)c1 returned Bead autofluor 2970, PrP UTR inh -7, ugtP null kill 4, BJeLR viability -2, Mtb hypoxia inh 1, Sa RN4220 lethal -13 and Mtb hypoxia inh growth 3.
Screening Cc1ccccc1C(=O)NCCCCc1ccccc1 returned Bead autofluor 2104, PrP UTR inh -6, ugtP null kill 7, BJeLR viability -15, Mtb hypoxia inh 13, Sa RN4220 lethal 8.5 and Mtb hypoxia inh growth -1.
`COC12CCC3(CC1C(C)(O)C(C)(C)C)[C@H]1Cc4ccc(O)c5c4[C@@]3(CCN1CC1CC1)C2O5` (stereo partly drawn) gave Bead autofluor 6176, PrP UTR inh -134, ugtP null kill 15 and Sa RN4220 lethal 6.7.
Screening CCN1C(=O)[C@H]2[C@H]3CN=C(SCc4ccc(C#N)cc4)N3[C@@](Cc3ccccc3)(C(=O)OC)[C@H]2C1=O returned Bead autofluor 3988, PrP UTR inh -15, ugtP null kill 3, Mtb hypoxia inh -2, Sa RN4220 lethal 3.2 and Mtb hypoxia inh growth 7.
Screening CC(C)N=C(NC#N)SCc1ccc(Br)cc1 returned Bead autofluor 4350, PrP UTR inh -16, ugtP null kill -2, BJeLR viability -5 and Sa RN4220 lethal -3.0.
For CCCCC1C2C(=O)N(c3ccccc3)C(=O)C2ON1c1ccccc1 (stereo not drawn) the results were Bead autofluor 3749, PrP UTR inh -23, ugtP null kill 8, BJeLR viability -15, Mtb hypoxia inh -7, Sa RN4220 lethal 3.7 and Mtb hypoxia inh growth -4.
For CCn1c(C)nc2cc(C(=O)N/N=C/c3ccc(N4CCOCC4)cc3)ccc21 the results were Bead autofluor inconclusive, PrP UTR inh -15 and BJeLR viability -8.
For Cc1c(NC(=O)N2CCCCCC2)c(=O)n(-c2ccccc2)n1C the results were Bead autofluor 4023, PrP UTR inh -3, ugtP null kill -5, BJeLR viability 1, Mtb hypoxia inh 3, Sa RN4220 lethal -3.7 and Mtb hypoxia inh growth 8.
COCCC(=O)N1CCC(Oc2ccc(C(=O)N3CCC(N(C)C)C3)cc2)CC1 (stereo not drawn) was read as Bead autofluor 4986, PrP UTR inh -15, ugtP null kill 6, BJeLR viability 2, Mtb hypoxia inh 4, Sa RN4220 lethal 3.1 and Mtb hypoxia inh growth 2.
For COc1ccc(CC(=O)Nc2c(C(N)=O)oc3ccccc23)cc1 the results were Bead autofluor 6326, PrP UTR inh -10, ugtP null kill 0, BJeLR viability 14, Mtb hypoxia inh 13, Sa RN4220 lethal 2.0 and Mtb hypoxia inh growth 6.
Cc1cc2ccccn2c1C(=O)c1ccc(F)cc1 was read as Bead autofluor 3619, PrP UTR inh -16, ugtP null kill 7, BJeLR viability 1, Mtb hypoxia inh 15, Sa RN4220 lethal 5.6 and Mtb hypoxia inh growth 0.
O=C(Cc1cccc(NC(=O)C2CCCN(C(=O)C3CCC3)C2)c1)Nc1cccc(C(=O)N2CCOCC2)c1 (stereo not drawn) was read as Bead autofluor 3469, PrP UTR inh -7, ugtP null kill -1, Mtb hypoxia inh 0, Sa RN4220 lethal 1.3 and Mtb hypoxia inh growth 8.
C=CCn1c(SCC(=O)N(C)C2CCS(=O)(=O)C2)nc2ccccc2c1=O (stereo not drawn) was read as Bead autofluor 4513, PrP UTR inh -23, ugtP null kill 4, BJeLR viability -11, Mtb hypoxia inh 3, Sa RN4220 lethal 3.5 and Mtb hypoxia inh growth 0.
For CC1CC(C)CN(C(=O)CSc2nnc(CSc3ncccn3)n2C)C1 (stereo not drawn) the results were Bead autofluor 4260, PrP UTR inh -14, ugtP null kill -5, BJeLR viability 3, Mtb hypoxia inh 6, Sa RN4220 lethal 4.7 and Mtb hypoxia inh growth 9.
Screening Cc1cc(C)c(NC(=O)c2cc3c(nc4sccn43)s2)c(C)c1 returned Bead autofluor 4227, PrP UTR inh -13, ugtP null kill -6, BJeLR viability 5, Mtb hypoxia inh 4, Sa RN4220 lethal 4.6 and Mtb hypoxia inh growth 11.
Cc1c(Br)ccc(NC(=O)Cn2nc(-c3cccs3)ccc2=O)c1C was read as Bead autofluor 3710, PrP UTR inh -8, ugtP null kill 0, BJeLR viability -5, Mtb hypoxia inh 4, Sa RN4220 lethal 2.5 and Mtb hypoxia inh growth 5.
For Cc1ccc2nc(NC(=O)CN3CCOCC3)sc2c1 the results were Bead autofluor 4479, PrP UTR inh -58, ugtP null kill 5, BJeLR viability -14, Mtb hypoxia inh 11, Sa RN4220 lethal 2.5 and Mtb hypoxia inh growth 2.
Cc1nn(C(C)C(=O)NNC(=S)Nc2ccc(F)cc2)c(C)c1[N+](=O)[O-] (stereo not drawn) was read as Bead autofluor 24064*, PrP UTR inh -18, ugtP null kill 10, BJeLR viability -14, Mtb hypoxia inh 4, Sa RN4220 lethal 6.4 and Mtb hypoxia inh growth 2.

Compound activity deposited in PubChem BioAssay by several laboratories.
